# UUG fidelity – yeast start codon fidelity modulation; S. cerevisiae UUG-firefly luciferase reporter, luminescence/redox ratio; activity score, % at 18.7 µM; 350,000 compounds, 0.13% hits;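 active = replicate mean at a twofold rise or more, about +100% in these data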;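 note: firefly luciferase made from a UUG start codon reports start codon fidelity; reporter light over untreated wells divided by growth signal over untreated wells; some hits fall short of that in this replicate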
# MT1-MMP act inh – MT1-MMP (human) activation inhibition; P50281; HT1080 RFP-PRO-GFP cells, GFP/RFP ratio fluorescence, overnight; percent of plate control window, DMSO zero; GFP/RFP ratio change, % at 20 µM; 360,000 compounds, 0.061% hits; AID 651647;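 active = GFP/RFP ratio change of at least 30% with cell ATP level not reduced by more than half and red fluorescence within 50% of control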; note: strong numbers were not always called active
#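 Assay system: HT1080 cells carrying an RFP-PRO-GFP reporter | Dosing: Single dose of 20 µM compound, 1% DMSO final | Incubation: Cells overnight before dosing, compound overnight, 37 °C, 5% CO2 | Evaluation: GFP/RFP fluorescence ratio | Control set: DMSO and RFP-L50D-GFP cell wells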
# Rce1 inh – yeast Ras-converting enzyme inhibition | Q03530 | yeast membranes, quenched prenylated peptide cleavage fluorescence | calls only | 290,000 compounds, 0.27% hits;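 active = fall in fluorescence gain of 50% or more versus controls, with final raw signal at or below 3038400; inconclusive = same 50% fall but final raw signal above 3038400; inactive = fall in fluorescence gain under 50%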;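 note: plate controls were neutral control wells for no effect and wells lacking membranes for full effect; tested at 10 µM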
# Target sequence (Q03530 whole entry, looked up): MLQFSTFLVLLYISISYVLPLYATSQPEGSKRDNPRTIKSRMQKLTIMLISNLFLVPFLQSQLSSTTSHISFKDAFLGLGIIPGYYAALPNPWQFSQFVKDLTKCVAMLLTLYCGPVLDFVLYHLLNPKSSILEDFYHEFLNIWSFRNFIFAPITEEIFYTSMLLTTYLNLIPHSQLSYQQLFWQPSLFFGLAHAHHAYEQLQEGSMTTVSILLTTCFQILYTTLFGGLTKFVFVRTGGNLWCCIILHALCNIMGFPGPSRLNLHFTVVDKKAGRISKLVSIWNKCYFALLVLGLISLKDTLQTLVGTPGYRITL
# PABP FP inh – PABP-poly(A) binding inhibition; inhibition, % at 35 µM; P11940; 290,000 compounds, 1% hits; PABP-poly(A) RNA binding, fluorescence polarization;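 active = 50% or more with normal probe brightness, or confirmed in later tests; inconclusive = above 50% with abnormal brightness, or retests that disagree; inactive = below 50% or failed in later tests; about a fifth of its hits are not listed in these tables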;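 note: calls also rest on retests at 20 µM and on dose response follow-up; controls were probe without protein and protein plus probe with vehicle; some compounds called inactive have numbers as strong as hits; many hits fall short of the cut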
# Target sequence (P11940 whole entry, looked up): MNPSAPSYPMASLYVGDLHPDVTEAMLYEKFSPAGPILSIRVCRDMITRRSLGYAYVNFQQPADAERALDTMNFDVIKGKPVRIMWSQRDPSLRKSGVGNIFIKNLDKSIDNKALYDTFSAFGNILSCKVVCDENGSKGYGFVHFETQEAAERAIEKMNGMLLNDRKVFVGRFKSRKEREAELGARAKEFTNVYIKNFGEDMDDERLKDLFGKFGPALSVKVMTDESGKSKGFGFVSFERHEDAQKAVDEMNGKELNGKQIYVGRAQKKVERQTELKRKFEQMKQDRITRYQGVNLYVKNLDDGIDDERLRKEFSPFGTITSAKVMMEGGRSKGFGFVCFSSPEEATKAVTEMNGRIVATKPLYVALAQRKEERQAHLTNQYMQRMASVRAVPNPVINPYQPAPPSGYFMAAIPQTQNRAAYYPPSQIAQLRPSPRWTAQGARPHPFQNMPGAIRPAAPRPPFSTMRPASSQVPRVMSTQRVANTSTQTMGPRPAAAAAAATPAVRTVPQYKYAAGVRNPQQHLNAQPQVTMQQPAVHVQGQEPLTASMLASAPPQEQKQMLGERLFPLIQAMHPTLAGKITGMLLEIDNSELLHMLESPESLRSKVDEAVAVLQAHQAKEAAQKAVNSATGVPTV
# eIF4H FP inh – inhibitors of RNA binding by human eIF4H; Q15056; eIF4H fluorescence polarization binding assay; inhibition, % at 35 µM; 290,000 compounds, 0.94% hits; AID 2012;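 active = 50% or more with normal probe brightness, or confirmed in later tests; inconclusive = above 50% with abnormal brightness, or retests that disagree; inactive = below 50% or failed in later tests; about a fifth of its hits are not listed in these tables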;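 note: calls also rest on retests at 20 µM and on dose response follow-up; 0% = protein and probe with vehicle and 100% = probe without protein; strong numbers were not always called active; many hits fall short of the cut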
# HIV Env fusion – blocks HIV Env-driven cell-cell fusion; HeLa-JRFL Env/CEM21 cell fusion, luciferase; inhibition, % at 12.3 µM; 360,000 compounds, 1.1% hits;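 active = mean replicate inhibition score of at least 50 and every replicate individually at or above 50; inconclusive = only one of the two criteria met; inactive = mean below 50 and not all replicates reaching 50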;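 note: 0% = plate neutral controls and 100% = maraviroc near 300 nM; one replicate is shown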
# CSC inhib – blocks cancer stem cells. cancer stem cell-like cells viability, luminescence. 300,000 compounds, 1.1% hits. inhibition, % at 7.5 µM. AID 2717;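 active = mean at 75% or more and at least half the replicates too; inconclusive = mean and replicates disagree; tested in HMLE shEcad cells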;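 note: 0% = median of negative and 100% = median of positive control wells; the first replicate is given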
# eIF4H FP inh retest – further read-out of eIF4H FP inh, marked with its call; inhibition, %; compound at 20 µM; confirmation average;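 mean of two retest wells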
# PABP FP inh retest – also measured in PABP FP inh; calls as there; inhibition, %; compound at 20 µM; confirmation repeats;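 mean of two retest wells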
# MT1-MMP act inh RFP – further read-out of MT1-MMP act inh, marked with its call; RFP signal change, %; measured here: RFP expression control read;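 0 = vehicle wells; hits needed this value within 50% of zero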
# * hit, by the source's call; i = inactive; ? = inconclusive; . = not tested or not shown; & = joins results of further samples.
SMILES,UUG fidelity,MT1-MMP act inh,MT1-MMP act inh RFP,Rce1 inh,PABP FP inh,eIF4H FP inh,HIV Env fusion,CSC inhib,others
C[C@@H]1CN([C@@H](C)CO)S(=O)(=O)c2ccc(Br)cc2O[C@@H]1CN(C)C(=O)C1CC1,-3.3&0.0&-6.2,3.9,5.1,.,.,.,14.4,.,
Cc1sc2nc(CN3CCCC3)nc(NCc3ccncc3)c2c1C,.,-5.7,2.5,i,-10.4,4.2,13.2,-14.4,
CC(=O)c1ccc(NC(=O)Nc2cccc(Cl)c2)cc1,-9.6,0.5,-7.3,i,-11.3,-8.6,.,-2.0,
Cc1ccc(S(=O)(=O)N2CCN(C3CCC(c4ccccc4)CC3)CC2)cc1 (configuration not stated),.,.,.,i,5.0,-6.2,.,24.9,
Cc1cccc(C)c1NC(=O)Nc1nc(CN(C)C)cs1,-18.1,1.0,7.5,.,.,.,-2.4,.,
COc1ccc(C2=NN(CC(=O)NCC(OC)OC)C(=O)CC2)cc1,-10.3,3.2,5.6,i,3.2,-10.3,-5.2,0.6,
O=c1cc(Nc2ccc3c(c2)OCCO3)[nH]c(=O)n1-c1ccc(Br)cc1,-14.3,-1.9,-0.9,i,-9.7,3.3,6.2,.,
COc1cc(C(C#N)N2N=C(c3ccccc3)CC2c2ccccc2)ccc1O (configuration not stated),-10.8,1.9,3.2,i,5.8,-6.1,-128.4,6.0,
CN(C)CCNC(=S)Nc1ccc(F)c(F)c1F,-13.2,-2.5,3.4,i,0.1,-0.3,6.4,-5.1,
COC(=O)C1C(O)=C(C=Nc2ccccc2)C(=O)CC1(C)C (configuration not stated),.,0.2,3.3,i,-13.5,-4.4,-1.3,-6.5,
Cc1onc(-c2c(Cl)cccc2Cl)c1NC(=O)NNc1c(Cl)cncc1Cl,.,-1.9,2.1,i,10.3,-5.4,19.0,13.0,
Cc1ccc(/C=N/NC(=O)c2ccc(Br)o2)s1,.,4.4,7.7,i,9.4,-12.1,-7.0,-7.5,

# Seven structures out of the list, sorted by heavy-atom count, smallest number first.
SMILES,UUG fidelity,MT1-MMP act inh,MT1-MMP act inh RFP,Rce1 inh,PABP FP inh,eIF4H FP inh,HIV Env fusion,CSC inhib,others
Cc1ccc(/C=N/NC(=O)c2ccc(Br)o2)s1,.,4.4,7.7,i,9.4,-12.1,-7.0,-7.5,
CC(=O)c1ccc(NC(=O)Nc2cccc(Cl)c2)cc1,-9.6,0.5,-7.3,i,-11.3,-8.6,.,-2.0,
Cc1cccc(C)c1NC(=O)Nc1nc(CN(C)C)cs1,-18.1,1.0,7.5,.,.,.,-2.4,.,
COc1ccc(C2=NN(CC(=O)NCC(OC)OC)C(=O)CC2)cc1,-10.3,3.2,5.6,i,3.2,-10.3,-5.2,0.6,
O=c1cc(Nc2ccc3c(c2)OCCO3)[nH]c(=O)n1-c1ccc(Br)cc1,-14.3,-1.9,-0.9,i,-9.7,3.3,6.2,.,
Cc1ccc(S(=O)(=O)N2CCN(C3CCC(c4ccccc4)CC3)CC2)cc1 (configuration not stated),.,.,.,i,5.0,-6.2,.,24.9,
COc1cc(C(C#N)N2N=C(c3ccccc3)CC2c2ccccc2)ccc1O (configuration not stated),-10.8,1.9,3.2,i,5.8,-6.1,-128.4,6.0,

# Remaining list, next part:
SMILES,UUG fidelity,MT1-MMP act inh,MT1-MMP act inh RFP,Rce1 inh,PABP FP inh,eIF4H FP inh,HIV Env fusion,CSC inhib,others
O=S(=O)(c1ccccc1)N1CN(c2ccc(F)cc2F)c2nc3ccccc3nc21,-13.5,0.1,-5.4,.,.,.,-39.2,-4.3,
CN(C)CCCN1C(=O)c2oc3ccc(Cl)cc3c(=O)c2C1c1cccnc1 (configuration not stated),0.0,0.4,2.4,i,-9.1,-11.1,-52.8,-16.1,
C=CC[C@@H](CC(=O)OC(C)(C)C)C(=O)OC[C@@H]1CCCN1C(=O)[C@H](CC=C)CC(=O)NCCO,8.0,0.7,-2.8,.,.,.,-13.9,-9.0,
CCOc1ccc(S(=O)(=O)N2CCN=C2c2ccccc2)cc1,5.3,-7.7,-12.9,i,-1.3,-11.2,.,117.4*,
COc1ccc(-c2cn(CCC(=O)NCc3ccc(C)cc3)c(-c3ccncc3)n2)cc1,-14.5,-1.4,1.9,i,-9.3,-9.4,1.6,-6.6,
O=C(Nn1c(-c2ccccc2)nc2ccccc2c1=O)c1cccs1,.,-8.2,2.8,i,-2.5,4.4,.,.,
O=C(N/C=C/n1cnc2cc(C(F)(F)F)ccc21)c1ccccc1F,.,-1.4,2.0,i,-16.9,1.0,-1.1,-2.7,
Cc1ccccc1C(=O)Nc1ccnn1C1CCN(C(C)Cc2ccccc2F)CC1 (configuration not stated),0.7,-1.9,-1.7,i,13.3,?,0.6,-7.6,PABP FP inh retest=42.9
N#CC1C=Cc2ccccc2N1C(=O)c1ccccc1 (configuration not stated),-21.4,-7.1,-8.6,i,5.1,-1.0,-2.9,-9.5,
O=C(CNCc1ccccn1)Nc1ccc([N+](=O)[O-])cc1C(=O)Nc1ccccc1F,-33.9,-4.2,-1.3,i,0.0,6.6,-7.4,0.1,
CCc1nn(CC(=O)NCCCc2ccccc2)c(=O)c2cc3c(OC)cccc3n12,0.2,6.1,6.9,i,5.8,16.4,-5.4,-11.3,
CCn1nnnc1SCC(=O)N(C)C1CCS(=O)(=O)C1 (configuration not stated),0.5,-2.5,1.5,.,.,.,5.6,.,
Cc1onc(-c2ccccc2)c1C(=O)NC(=S)NNC(=O)c1cc(-c2ccc(F)cc2)n[nH]1,-29.6,-0.1,0.9,i,9.0,12.1,-11.5,30.9,
COc1nccnc1NS(=O)(=O)c1ccc(N/C=C2\CCCCC2=O)cc1,.,2.4,3.5,i,-11.9,11.5,0.4,-20.5,
CNC(=S)N1CCC(NC(=O)C23CC4CC(CC(C4)C2)C3)CC1,.,0.3,1.4,i,2.5,-0.3,5.6,9.4,
COCCn1c(SCC(=O)Nc2cc(C(C)(C)C)nn2-c2ccccc2)nc2ccccc2c1=O,.,1.2,2.6,i,23.5,-7.9,.,2.6,
Cn1c(-c2ccc3ccccc3n2)[n+](C)c2ccccc21,11.7,0.4,-18.4,i,14.8,8.1,-12.7,8.3,
Cc1nnc(SCC(=O)N2c3ccccc3CC2C)s1 (configuration not stated),-6.6,-0.2,-2.9,i,6.9,4.1,.,7.2,
Cc1cc(-c2nnnn2-c2cc(Cl)cc(Cl)c2)no1,-18.5,-2.7,-1.8,i,-16.0,-11.1,7.6,3.2,
CCCn1c(C)cc(C(=O)COC(=O)CN=C2NS(=O)(=O)c3ccccc32)c1C,-0.5,1.5,-1.3,i,8.0,-2.0,-3.7,4.0,
Cc1cc(=O)oc2cc(OCC(=O)Nc3ccc(S(=O)(=O)N(C)C)cc3)ccc12,7.3,-3.8,-0.5,.,7.2,-3.5,-5.3,-3.8,
O=C(/C=C/c1ccco1)NC(=S)Nc1ccccn1,-26.5,-0.9,7.3,i,31.5,77.0,-94.4,7.0,eIF4H FP inh retest=-13.5;PABP FP inh retest=-0.8
Cc1onc(-c2ccccc2)c1-c1ccnn1S(=O)(=O)c1ccc(Cl)cc1,.,-2.8,-4.6,i,-6.0,4.0,12.0,34.6,
COc1ccc(CN2C(=O)C(CC(=O)NC3CCCC3)CC(C(=O)N(C)C)=C2C)cc1 (configuration not stated),-11.7,1.4,3.7,.,.,.,26.1,.,
CC(=O)Nc1ccc(/C=C/c2nc3ccccc3o2)cc1,-21.6,1.2,-2.8,i,-7.0,-6.1,-115.3,.,
Cc1ccc(NC(=O)NNc2cccc(Cl)n2)cc1,.,4.1,5.6,i,0.4,-1.8,-6.4,4.2,
C=CCN(c1ccccc1OC)S(=O)(=O)c1cccc(C(=O)OCC(=O)N2CC(C)OC(C)C2)c1 (configuration not stated),-13.7,-0.3,-0.2,.,.,.,-6.1,-2.1,
CN(C)/C=N/c1c(C#N)cnn1-c1ccc(C(F)(F)F)cn1,-23.9,4.3,6.3,.,8.8,-7.3,.,-3.7,
C=CCn1c(=NC(=O)c2sc3ccccc3c2Cl)sc2cc(S(N)(=O)=O)ccc21,-10.3,11.0,4.1,i,-8.0,-22.7,.,7.5,
CCN1C/C(=C/c2cccc([N+](=O)[O-])c2)C(=O)/C(=C/c2cccc([N+](=O)[O-])c2)C1,12.7,.,.,.,-3.5,14.4,?,84.8*,
CC(C)NC(=O)NC1C2CC3CC(C2)CC1C3 (configuration not stated),-16.0,0.0,-0.7,i,-4.4,-5.3,.,-10.5,
O=C(O)c1ccccc1C(=O)Nc1ccc(S(=O)(=O)N2CCCC2)cc1,-2.5,4.3,1.8,i,-0.4,-11.7,8.7,2.5,
N#CCCN(C(=O)COC(=O)c1cc(=O)c2ccccc2o1)c1ccccc1,3.4,-1.5,2.9,.,.,.,-1.4,-14.7,
Cc1ccc(/C=N/Nc2nc(N3CCCCC3)nc(N3CCCCC3)n2)o1,.,3.6,2.0,i,-1.7,4.1,14.1,5.9,
CC(=O)Nc1ccccc1NC(=O)C/C(C)=N/NC(=O)c1cccnc1,-17.5,1.6,5.3,.,11.4,4.1,2.7,-18.2,
COCCN(C(=O)COC(=O)CCC(=O)c1ccc(Cl)cc1)c1c(N)n(Cc2ccccc2)c(=O)[nH]c1=O,-4.5,-3.8,1.4,i,4.3,3.8,-20.5,4.2,
CC1=C(C(=O)OCc2ccccc2)C(c2ccc(N(C)C)cc2)NC(=O)N1 (configuration not stated),-17.0,-8.3,2.1,i,-16.9,-0.5,33.1,8.8,
CCCNC(=O)c1cc(C2CCCCN2S(=O)(=O)c2cn(C)cn2)on1 (configuration not stated),-8.0,2.3,5.5,.,.,.,-19.1,.,
Cc1ccc(S(=O)(=O)N(C)C)cc1NC(=O)C(C)Sc1ccccc1 (configuration not stated),.,4.1,-1.5,i,-9.8,1.3,0.4,-0.8,
C[N+]1(CC(=O)OCCCc2ccccc2)CCCC1,.,0.4,1.4,i,-10.2,-0.8,10.1,-9.5,
CNc1ccc(S(=O)(=O)NCC(=O)OC(C)C(=O)N(C)Cc2ccccc2)cc1[N+](=O)[O-] (configuration not stated),-2.8,2.5,-0.6,.,.,.,.,-4.0,
Cc1ccc(C(=O)CCC(=O)Nc2cccc(C(F)(F)F)c2)cc1,8.3,10.4,5.0,i,-9.7,-9.1,.,.,
COc1ccc(CC(=O)N2CCC(n3nccc3NC(=O)C3CCOC3)CC2)cc1 (configuration not stated),-8.5,3.0,1.8,i,0.0,-3.1,-7.5,-14.1,
O=C(NC(=S)Nc1ccc(F)cc1)c1ccc2c(c1)OCCO2,.,10.3,-14.6,i,-0.7,4.5,-119.7,23.7,
COC(=O)CCc1nc2cc(Cl)ccc2n(Cc2ccccc2)c1=O,.,-0.5,-0.2,i,-10.3,-3.5,19.7,-17.2,
CCOC(=O)c1cc2c(c(CSc3nc4ccccc4c(=O)n3Cc3ccco3)c1)OCOC2,.,-2.0,-4.6,i,-11.0,-6.7,.,-12.9,
O=C(O)[C@H](Cc1ccccc1)Nc1ccc([N+](=O)[O-])cn1,-36.7,-3.3,-1.2,i,-2.6,7.2,-4.8,-11.2,
CC(C)CNC(=O)C(=O)NCC1OCCN1S(=O)(=O)c1cccs1 (configuration not stated),-1.4,-2.0,1.9,i,-4.8,13.2,10.6,0.8,

# Bioassay records as filed in PubChem BioAssay.
